Assay outcomes as filed in PubChem.
VDR inh: Inhibitors of the vitamin D receptor (VDR): qHTS. AID 504847, 2011. actives 0.93% (n = 400,000). Potency, µM, for the others: max response, negative = inhibition, actives largely listed as inhibitors. Vitamin D3 receptor (Homo sapiens), P11473. VDR-SRC2-3 peptide fluorescence polarization, 2 h; active = well fitted inhibition curve with a large enough effect; inconclusive = small, poorly fitted or top-dose-only effect, or another doubt; inactive = no such curve, though single readings can be large or run the other way; also: series mostly up to about 120 µM
Target sequence (P11473 whole entry, looked up): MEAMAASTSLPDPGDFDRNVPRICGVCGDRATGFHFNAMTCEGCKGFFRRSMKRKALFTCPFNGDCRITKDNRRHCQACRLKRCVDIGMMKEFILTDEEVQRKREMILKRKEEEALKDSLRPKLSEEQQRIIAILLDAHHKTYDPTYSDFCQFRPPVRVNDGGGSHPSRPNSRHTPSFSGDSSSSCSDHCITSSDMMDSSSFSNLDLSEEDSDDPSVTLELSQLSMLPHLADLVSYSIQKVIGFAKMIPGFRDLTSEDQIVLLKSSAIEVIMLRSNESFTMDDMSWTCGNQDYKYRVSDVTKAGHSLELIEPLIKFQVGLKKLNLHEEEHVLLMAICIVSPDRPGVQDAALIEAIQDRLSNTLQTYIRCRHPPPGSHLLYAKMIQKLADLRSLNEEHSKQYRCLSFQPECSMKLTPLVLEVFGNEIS
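Two reagent solutions held at 4 deg C in the dark were dispensed, compounds pinned at 23 nl, and the mixture incubated 2 h at room temperature. Read-out: fluorescence polarization of VDR–SRC2-3 peptide binding.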
Numbers without * were called inactive; ? = inconclusive; & = joins results of further samples; [ ] = another dose, or the depositor's remark. % is scaled to controls: 0 for no effect and ±100 for the full control effect; potency is read from the fitted curve at half-maximal effect. Some of the compounds tested; the hit share may differ from the screen's.

structure	VDR inh
CSc1cccc(NC(=O)C2CCN(c3ncnc4c3nc3n4CCCCC3)CC2)c1	2%
CCc1ccc(-c2cn3c(n2)sc2cc(C(=O)NCC(C)c4ccccc4)ccc23)cc1 (stereo not drawn)	9%
Cc1nnc2ccc(-c3ccc(NC(=O)c4ccco4)cc3)nn12	-27%
CC(C)c1csc(CN2CCC(CO)(Cc3ccccc3)CC2)n1	-7%
Cc1ccc(CCNC(=O)c2cc3n(n2)CCCN(Cc2ccc(C)cc2)C3=O)cc1	11%
Cc1ccccc1C(=O)Nc1ccc2c(c1)nc(CCNC(=O)c1ccco1)n2C	8%
Nc1nc(NC(=O)/C=C/c2ccccc2)nn1-c1ccccc1	-4%
COC(=O)c1[nH]c2cccc(OC)c2c1NC(=O)CCN1CC(C)CC(C)C1 (stereo not drawn)	10%
COc1ccccc1N1CCN(C(=O)c2cccc(N3C(=O)NC4CC3(C)Oc3ccccc34)c2)CC1 (stereo not drawn)	-2%
NS(=O)(=O)c1ccc(-n2nc(C(=O)O)cc2-c2ccc(Cl)cc2)cc1	3%
CN1N=C2c3ccccc3CCC2C1c1ccc(Cl)cc1 (stereo not drawn)	2%
O=S(=O)(Nc1nc2ccccc2nc1NCC1CCCO1)c1cccs1 (stereo not drawn)	-7%
CCN(CCn1cccn1)C(=O)CCc1nnc(CCCc2ccccc2)o1	9%
Nc1nc(N2CCN(c3cccc(Cl)c3)CC2)n[nH]1	-1%
CCC(C)(C)C1CCc2[nH]nc(C(=O)NC3CCCC3)c2C1 (stereo not drawn)	2%
Cc1cccc(C(=O)n2cnnc2N)c1	-4%
COc1ccc(NC(=O)c2oc3ccc(S(=O)(=O)N4CCCCC4)cc3c2C)cc1Cl	16%
CC1CCCN(c2ccc3nncn3n2)C1 (stereo not drawn)	6%
CCOc1ccccc1-c1noc(CSc2nnc(-c3ccccc3)n2-c2ccc(OC)cc2)n1	10%
Cc1ccc(N2CCN(c3nc4ccc(C(=O)c5ccccc5)cc4n4cnnc34)CC2)c(C)c1	11%
COc1ccccc1C(=O)NCCC(=O)NC(C)CCc1ccccc1 (stereo not drawn)	-5%
Cc1ccc(S(=O)(=O)CCC(=O)OCC(=O)Nc2ccc(N3CCOCC3)cc2)cc1	2%
COc1ccc(-c2cnnc(N/N=C/c3ccc(O)c(OC)c3)n2)cc1	-8%
COc1ccc(NS(=O)(=O)c2cccc(C(=O)N3CCC3)c2)cc1	13%
CN(C)C(=O)c1ccc2c(c1)n(C)c(=O)n2C	22%
COc1ccccc1N(CC(=O)Nc1ccc(S(=O)(=O)N2CCOCC2)cc1)S(C)(=O)=O	-4%
CCN(C(=O)CSc1nnc(-c2ccco2)n1CC)c1c(N)n(Cc2ccccc2)c(=O)[nH]c1=O	13%
CSc1nc(NC(C)C)nc(N2CCOCC2)n1	-3%
CC1=C(C(=O)Nc2ccc(C(=O)NC(C)c3ccccc3)cc2)SCCO1 (stereo not drawn)	8%
COc1ccc(CNC(=O)C(C)N2CCN(c3ccc(C(C)=O)cc3)CC2)cc1 (stereo not drawn)	-6%

An excerpt of these results, with values ahead of the structure:
VDR inh | Compound
-3% | CSc1nc(NC(C)C)nc(N2CCOCC2)n1
8% | CC1=C(C(=O)Nc2ccc(C(=O)NC(C)c3ccccc3)cc2)SCCO1 (stereo not drawn)

Next compounds follow.
structure	VDR inh
O=C(OCCOCCN=C1NS(=O)(=O)c2ccccc21)c1ccccc1Br	-21%
Cc1c(C(=O)N2CCCCC2)c(S(=O)(=O)N(C)Cc2ccccc2)c(C)n1C	7%
O=S(=O)(c1ccccc1)N1CCC2(CCN(c3ncccn3)CC2)CC1	-4%
O=C(C1CCN(S(=O)(=O)c2cccs2)CC1)N1CCc2ccccc2C1	6%
CCCCc1nnc(NC(=O)C23CC4CC(CC(NC(C)=O)(C4)C2)C3)s1	1%
Cc1c(-c2ccc(Br)cc2)nc2ccccn12	?
O=C(NNC(=O)c1cc([N+](=O)[O-])ccc1Cl)c1cccs1	-10%
Cc1cc(/C=C(\C#N)C(=O)NCc2ccco2)c(C)[nH]1	14%
CCCCN1C(=O)C2Cc3c([nH]c4ccccc34)CN2C1=S (stereo not drawn)	-12%
COc1cccc(/C=N/n2c(-c3cc(C)[nH]n3)n[nH]c2=S)c1	-1%
CC[C@H](C)C(=O)O[C@H]1CCC=C2C=C[C@H](C)[C@H](CC[C@@H]3C[C@@H](O)CC(=O)O3)[C@H]21	-24%&-9%
Clc1ccc2nc(N3CCNCC3)nc(-c3ccccc3)c2c1	-15%
CSc1ccccc1C(=O)N1CCN(c2ccc(F)cc2)CC1	-3%
Cc1cccc(-n2c(CNC(=O)c3ccc(S(=O)(=O)N(C)C)cc3)nnc2SCC(=O)Nc2ccc(F)cc2)c1	-21%
Cc1nc([N+](=O)[O-])cn1CC(O)c1ccc(Cl)cc1 (stereo not drawn)	-13%
CC(=O)c1cccc(NC(=O)c2c(N3CCCC3=O)c3cc(F)ccc3n2C)c1	14%
CC1(C)Cc2cccc(Oc3ccc(S(=O)(=O)N4CCCCC4)cn3)c2O1	-8%
CC(=O)c1ccc(-c2nnc(CCC(=O)N(C)Cc3cnc4ccccn34)o2)s1	9%
CN(CC(=O)Nc1ccc(Cl)cc1)C1=NS(=O)(=O)c2ccccc21	1%
CCc1c(C(=O)N2CCCN(C)CC2)csc1C	-2%

A different layout for some results above.
CN(CC(=O)Nc1ccc(Cl)cc1)C1=NS(=O)(=O)c2ccccc21
  VDR inh = 1%

CCc1c(C(=O)N2CCCN(C)CC2)csc1C
  VDR inh = -2%

More records follow:
structure	VDR inh
COc1ccc(C(=O)NC(=S)N2CCOCC2)cc1Br	-11%
COc1ccc(COCC(O)CN(Cc2ccccc2)C(C)C)cc1OC (stereo not drawn)	-1%
O=C(CSc1nnc(-c2ccco2)o1)c1ccc(O)cc1O	9%
COc1ccc(C(CCN2CCCC(C)C2)c2c(O)cc(OC)cc2OC)cc1 (stereo not drawn)	3%
CC(=O)N/C(=C\c1ccccc1)C(=O)OCC(=O)NC1CCCC1	7%
O=C(/C=C/c1ccccc1Cl)Nc1ccc(Cl)cn1	16%
O=S(=O)(NN=C1CCCCC1)c1ccccc1	-15%
Brc1ccc(-c2nc(-c3ccccc3)no2)o1	-12%
C=CCOc1ccccc1CN1CCCCCC1	-13%
OCC[C@@H]1C[C@H](O)[C@@H](O)[C@]2(CCCc3ccccc3O2)O1	-4%
O=C(CSc1nnnn1-c1cccc(F)c1)NC1CCCCC1	-6%
CC(=O)c1sc(NC(=O)C2CC(=O)N(Cc3ccco3)C2)nc1-c1ccccc1 (stereo not drawn)	-18%
O=C(NCCc1ccccc1)c1n[nH]c(=O)c2ccccc12	5%
COCCN(C(=O)c1ccc(OC2CCN(S(=O)(=O)N(C)C)CC2)cc1)C(C)C	-5%
O=C(Cc1ccc(F)cc1)N[C@@H]1c2ccccc2CC[C@H]1OCc1ccccc1	12%
Cc1ccc(C)c(NC(=O)c2ccc(=O)n(Cc3ccc(F)cc3)c2)c1	-2%
COc1ccc(Cn2nnnc2C(C(C)C)N(Cc2ccco2)Cc2cccs2)cc1 (stereo not drawn)	7%
COc1ccc(/C=C/C(=O)NC(=S)NNC(=O)c2ccco2)cc1	13%
CCOC(=O)CCn1cc(F)c(=O)n(Cc2ccccc2)c1=O	-16%
O=C(CNS(=O)(=O)/C=C/c1ccccc1)OCC(=O)N1CCC(Cc2ccccc2)CC1	37%[activator]
O=C(NC1=NCCS1)C1CC(=O)N(c2ccc(Cl)cc2)C1 (stereo not drawn)	-1%
CCCn1nnnc1SCC(=O)NCc1ccccc1	-4%
CCCn1c(SCC(=O)Nc2ccc(NC(=O)CC)cc2)nc2c1c(=O)n(C)c(=O)n2C	-9%
O=C1CC(SCCO)C(=O)N1c1ccccc1 (stereo not drawn)	-8%
Cc1cccc(CNC(=O)C2CCC(=O)N(Cc3ccccc3F)C2)n1 (stereo not drawn)	-8%
CC(=O)Nc1ccc(Cc2ccncc2)cc1	-2%
CC(C)C(=O)Nc1cccc(NC(=O)c2ccc(Cl)cc2Cl)c1	-19%
c1ccc(-c2ccccc2OCCn2cncn2)cc1	6%
O=C(NN1C(=O)c2ccccc2C1=O)C1CC2CCC1C2 (stereo not drawn)	-7%
Cc1cccc(NC(=O)CSc2nnc(CNC(=O)c3cccc(C)c3)n2-c2ccccc2)c1	1%
CCCN1CCc2[nH]c(=S)[nH]c(=O)c2C1	-9%
CCOC(=O)c1ccc(OCCOc2ccccc2C)cc1	-3%
CCCN(C(=O)CSCC(=O)Nc1ccc(OC)cc1)c1c(N)n(Cc2ccccc2)c(=O)[nH]c1=O	-13%
CCC1=Nc2ccc(Br)cc2C(c2ccccc2)N1CC(=O)OC (stereo not drawn)	-6%
C=CCN1C(=O)C(CC(=O)O)S/C1=N/N=C/c1ccc(N(CC)CC)cc1 (stereo not drawn)	-5%
CCOc1cccc(/C=C/c2ccc3cccc(O)c3n2)c1O	-8%
CCCCCCOc1ccc(C(CC(=O)NC)C(=O)O)cc1 (stereo not drawn)	-15%
Cc1nn(C)c(Nc2ccc(Br)cc2)c1Br	8%
CC1CCc2c(sc(NC(=O)c3ccccc3)c2C(=O)Nc2ccccc2)C1 (stereo not drawn)	-18%
NCC1O[C@@H](O[C@H]2C(O)C(O[C@@H]3C(O[C@H]4OC(CO)C(O)C(O)C4N)C(N)CC(N)[C@H]3O)O[C@@H]2CO)C(N)C(O)C1O (stereo partly drawn)	-1%
CCOc1ccccc1CNC(=O)Cn1c(=O)c2cccn2c2ccc(F)cc21	11%
CC(=O)C1=C(C)N(CC2CC2)C(=O)N[C@H]1c1cccs1	-3%&-5%
CCC(C)NC(=O)c1cccc(OCc2c(C)noc2C)c1 (stereo not drawn)	-28%
Cc1ccc(N2C(=O)N(CC(=O)Nc3ccc(C)cc3C)C(=O)C2C)cc1 (stereo not drawn)	-9%
CCN(c1cccc2ccccc12)S(=O)(=O)c1ccc(Cl)nc1	-3%
COCC(=O)Nc1ccc2c(c1)OCO2	-24%
CCOC(=O)c1sc(NC(=S)NC(=O)CC(C)C)cc1C	-30%
OC(CN1CCCCC1)c1ccc2c3c(cccc13)CC2 (stereo not drawn)	17%
NC(c1ccccc1)c1ccncc1 (stereo not drawn)	0%
O=C(CC(SCCO)c1ccc([N+](=O)[O-])cc1)c1ccco1 (stereo not drawn)	-4%

The listing continues.
structure	VDR inh
COc1ccc(S(=O)(=O)NCCOc2ccccc2)cc1-n1cnnn1	10%
O=C(Cn1c(=O)nc(-c2ccccc2F)c2cc(Cl)ccc21)NCCCc1ccccc1	-15%
CC(C)=CC(=O)Nc1ccc(OCc2ccccc2)cc1	-15%
Cn1c(N)c(C(=O)COC(=O)c2cccc(S(=O)(=O)N3CCCCC3)c2)c(=O)n(C)c1=O	-7%
CC(OC(=O)CC1CCCCC1)C(=O)Nc1ccc(F)cc1 (stereo not drawn)	-13%
O=C(c1cccnc1)N1C2CCC1CC(O)(c1ccc(F)cc1)C2 (stereo not drawn)	-8%
Brc1ccc(-c2nn3c(-c4ccco4)nnc3s2)o1	-13%
Cc1ccc(C)c(NC(=O)Cn2c([N+](=O)[O-])cnc2C)c1	-10%
Cc1cc(C(=O)NNS(=O)(=O)c2ccccc2C(F)(F)F)nn1C(C)(C)C	3%
CCCCOC(=O)c1nc(Cl)c(Cl)c(N)c1Cl	1%
CCN(CC)c1ccc2cc(S(=O)(=O)c3ccc(Cl)cc3)c(=O)oc2c1	9%
COCC(=O)N1CCC[C@@]2(CCN(C(=O)Nc3cccc(C#N)c3)C2)C1	0%
COc1ccccc1NC(=S)N(Cc1cccnc1)Cc1ccco1	4%
O=C(CN1C(=O)NC2(CCCC2)C1=O)N1CCN(c2ccc(C(F)(F)F)cc2[N+](=O)[O-])CC1	3%
C=CCn1c(CCC(=O)O)ccc1-c1ccc(OC)cc1	8%
Cc1ccccc1Nc1nc(N)nc(COC(=O)C2CCCCC2)n1	-1%
CS(=O)(=O)c1ccc(Cl)c(C(=O)O)c1	-1%
Cc1cc(NC(=O)CSc2nc(N)c(NC(=O)c3ccco3)c(=O)[nH]2)no1	?
C=CCn1c(C)cc(C(=O)CSc2nnc(C3CC3)n2C2CC2)c1C	-3%
O=C(/C=C/Nc1ccc(F)cc1F)c1cccs1	-7%
O=C1OCC2=C1C(c1ccc(F)cc1)c1cc3c(cc1N2)OCCO3 (stereo not drawn)	2%
COc1ccc(/C=N/NC(=O)c2ccccc2OCc2ccccc2)c(OC)c1	3%
C=CCOC(=O)CCC(=O)Nc1cccc2ccccc12	9%
CCOc1ccc(C2C(C(=O)OC)=CN(C(C)c3ccccc3)C=C2C(=O)OC)cc1 (stereo not drawn)	?
COc1cc(C(=O)Nc2scc(-c3ccc(C)cc3)c2C(=O)O)cc(OC)c1OC	?
Cc1ccc(N2C=Nc3ccc(C)c4nc(C)cc2c34)cc1	9%
NC(=O)c1ccc[n+](CC(=O)c2ccc(F)cc2)c1	14%

Copied from the list.
`CCCCOC(=O)c1nc(Cl)c(Cl)c(N)c1Cl` – VDR inh: 1%
`O=C(NCCc1ccccc1)c1n[nH]c(=O)c2ccccc12` – VDR inh: 5%
`C=CCn1c(C)cc(C(=O)CSc2nnc(C3CC3)n2C2CC2)c1C` – VDR inh: -3%
`COc1ccc(NS(=O)(=O)c2cccc(C(=O)N3CCC3)c2)cc1` – VDR inh: 13%
`CCN(CC)c1ccc2cc(S(=O)(=O)c3ccc(Cl)cc3)c(=O)oc2c1` – VDR inh: 9%
